Compound activity deposited in PubChem BioAssay by Johns Hopkins Ion Channel Center.
KCNQ2 block – KCNQ2 channel blockers in CHO-K1 cells – cell-based, FluxOR thallium flux, B-score, primary screen (AID 2156); O88943; 20 min; stronger effect = lower value; only compounds with negative scores are shown here; some inactives read as strong as hits; B-score at 10 µM; 1.1% of 310,000 active;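 active means fluorescence ratio B-score at most minus 3 library SDs, with starting brightness B-score within 2 library SDs, cut at about -5.5 in these data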
Target sequence (O88943 whole entry, looked up): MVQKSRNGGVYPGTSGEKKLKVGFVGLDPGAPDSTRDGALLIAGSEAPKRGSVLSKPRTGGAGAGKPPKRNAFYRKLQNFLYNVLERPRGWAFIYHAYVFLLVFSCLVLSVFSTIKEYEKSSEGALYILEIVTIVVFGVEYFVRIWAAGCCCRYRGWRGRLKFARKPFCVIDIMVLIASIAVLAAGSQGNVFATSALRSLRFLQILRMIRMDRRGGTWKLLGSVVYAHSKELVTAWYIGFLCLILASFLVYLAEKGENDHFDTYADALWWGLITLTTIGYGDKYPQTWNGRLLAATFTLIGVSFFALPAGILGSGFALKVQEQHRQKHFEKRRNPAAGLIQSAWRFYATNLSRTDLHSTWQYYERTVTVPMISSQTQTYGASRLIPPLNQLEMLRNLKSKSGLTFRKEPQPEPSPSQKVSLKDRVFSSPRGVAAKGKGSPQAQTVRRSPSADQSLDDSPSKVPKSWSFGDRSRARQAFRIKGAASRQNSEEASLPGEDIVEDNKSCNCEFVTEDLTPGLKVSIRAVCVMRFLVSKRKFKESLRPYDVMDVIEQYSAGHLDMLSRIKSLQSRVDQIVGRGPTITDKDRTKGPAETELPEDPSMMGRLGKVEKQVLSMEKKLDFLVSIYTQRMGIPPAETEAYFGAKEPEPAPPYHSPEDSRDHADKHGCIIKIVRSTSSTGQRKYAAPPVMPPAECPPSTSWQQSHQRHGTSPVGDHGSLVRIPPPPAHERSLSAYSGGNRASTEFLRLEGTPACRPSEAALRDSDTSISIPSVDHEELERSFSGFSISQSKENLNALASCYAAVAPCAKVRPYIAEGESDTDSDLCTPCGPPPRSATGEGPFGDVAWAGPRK
KCNQ2 block baseline – also measured in KCNQ2 block; calls as there; B-score; measured here: initial fluorescence intensity artifact check;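 brightness before thallium and not channel activity; 0 = typical well and far values either way flag optical interference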
* marks the source's active call; other numbers are inactive results; i = inactive. This is a subset (hit frequency here may not be typical).

KCNQ2 block	KCNQ2 block baseline	Molecule
i	-0.35	COc1ccc(CCNC(=O)COC(=O)COc2ccc(Cl)cc2)cc1OC
i	0.72	O=C(NCCCc1ccc(F)cc1)C1CCC(=O)N(CC2CCCCC2)C1 (stereo not given)
i	-1.4	c1csc(CN2CCN(Cc3cccs3)C2c2cccs2)c1
i	-0.78	Cc1cccc(OCC(=O)O/N=C(\N)c2ccc(Br)cc2)c1
i	0.88	CC(C)=NN1C(=O)c2ccccc2NC1(C)C
i	-2.4	O=C(CSc1nc2cc(Cl)ccc2s1)N1CCN(C(=O)c2ccco2)CC1
i	-0.02	Cc1cc2c(C)nc(Cc3ccccc3)nc2o1
i	0.52	O=C(COC(=O)CNC(=O)c1ccc(Cl)cc1Cl)NCC1CCCO1 (stereo not given)
i	-0.32	COCCn1c(=S)[nH]c2cc(C(=O)N3CCN(c4cccc(Cl)c4)CC3)ccc2c1=O
i	-0.66	COc1ccccc1N1CCN(C(=O)CN(Cc2ccc(Cl)cc2)S(C)(=O)=O)CC1
i	7	CC(=O)c1cc(NC(=O)c2ccccc2)c(=O)oc1/C=C/N(C)C
i	-0.22	CCCN(CCC)S(=O)(=O)c1ccc(C(=O)Nc2nnc(COC)o2)cc1
i	1.9	CN(C)c1ccc(/C=C(\C#N)c2ccccn2)cc1
i	-0.16	CCc1ccc(-c2nc(C)c(CCO)c(=O)[nH]2)cc1
i	0.49	COc1ccccc1Nc1nnc(C)c(=O)[nH]1
i	-0.04	N#Cc1cccc(C(c2nnnn2C2CCCC2)N2CCC(Cc3ccccc3)CC2)c1 (stereo not given)
i	-0.22	Cc1nnc(SCc2ccccc2F)n1NCc1cccs1
i	-0.09	CSc1ccc(/C=N/NC(=O)CNc2ccc3ccccc3c2)cc1
i	2.1	COc1ccc(OCc2nnc(SCC(=O)O)n2N)cc1
i	3.4	COc1ccccc1NC(=O)c1ccccc1Oc1ccccc1
i	0.67	COc1cc(OC)c(OC)cc1/C=C1\Oc2cc(OS(C)(=O)=O)ccc2C1=O
i	-0.26	COc1ccc(/C=C/C(=O)NC(=S)NNC(=O)[C@H]2C[C@@H]2c2ccccc2)cc1OC
i	0.01	CSc1ccc(CNC(=O)Cc2ccc(NC(=O)C3=C(C)OCCS3)cc2)cc1
i	0.38	Cc1ccc(S(=O)(=O)NCC(=O)NCC(=O)OCC(=O)NC(=O)NC(C)(C)C)cc1C
i	0.82	COC(=O)c1ccc(NC(=O)CNC(=O)C2CCCCC2)c(C)c1
i	0.01	CCc1ccc(Nc2ncc3c(n2)CC(C)(C)CC3=O)cc1
i	0.96	COc1cc(CN2CCSCC2)cc(OC)c1OC
i	0.4	CC1=CC2=NC(=O)CC(C)(C(=O)N(CC(=O)NC3CCCC3)c3cc(C)cc(C)c3)N2C=C1 (stereo not given)
i	11	CCCCCCCCCCOC(=O)Cn1c(COc2cccc(OC)c2)[n+](C)c2ccccc21
i	0.32	O=C(CCC(=O)c1cccs1)NCc1ccc(Cl)cc1
i	1.6	OC(CNCCc1ccc(C(F)(F)F)cc1)COC(c1ccccc1)c1ccccc1 (stereo not given)
i	0.59	CC(=O)N1CC(C)Sc2ccc(S(=O)(=O)NC3CCCCC3)cc21 (stereo not given)
i	-0.06	CNS(=O)(=O)c1ccc(NC(=O)Nc2cccc(F)c2)cc1
i	0.47	O=C(O)c1n[nH]nc1-c1ccccc1
i	0.32	Cc1ccc(C)c(NC(=O)Cn2nnc(C(=O)NCc3cccs3)c2N)c1
i	-1.1	COc1ccccc1/C=C/CN1CCSCC1
i	1.6	COc1ccccc1CNC(=O)c1ccc2c(=O)n(CCCN3CCCC3=O)c(=S)[nH]c2c1
i	-1.2	O=C(NCCc1csc(-c2ccc(Cl)cc2)n1)c1ccco1
i	0.1	O=C(CCn1nc(-c2ccc(Cl)cc2)ccc1=O)N1CCN(c2ccc(F)cc2)CC1
i	1.2	COCCCNC(=S)NNC(=O)c1csc2ccccc12
i	1.4	CCCCn1c(SCn2nnc3ccccc3c2=O)nc2cc(S(N)(=O)=O)ccc21
i	-1.3	COC(=O)c1cccc(C(=O)N2CCCC(CNC(=O)c3ccccc3Cl)C2)c1 (stereo not given)
i	-0.54	CCC(CC)C(=O)OCC(=O)Nc1cc(OC)c([N+](=O)[O-])cc1C
i	-0.12	COc1ccc(C(=O)Nc2ccc(NC(=O)c3cccc(OC)c3)cn2)cc1
i	0.3	COc1ccccc1CNC(=O)CCCc1nnc2n(C)c(=O)c3sccc3n12
i	0.09	COc1ccc(F)cc1S(=O)(=O)N1CCC2(CC1)OCCN2S(=O)(=O)c1ccccc1
i	2.7	N#CC1=C(N)Oc2cc(N)ccc2C1c1ccc(Cl)cc1 (stereo not given)
i	-0.14	O=C(c1ccc(F)cc1)C(CN1CCOCC1)c1ccccc1 (stereo not given)
i	2.2	CCCn1c(N2CCN(C(=O)N3CCCCC3)CC2)nc2ccccc21
i	0.69	COC(=O)c1c(C)[nH]c(C(=O)/C=C/c2ccccc2Cl)c1C

Other entries:
KCNQ2 block	KCNQ2 block baseline	Molecule
i	0.47	CC(Oc1ccc(F)cc1)C(=O)Nc1sc2c(c1C(=O)NCc1cccnc1)CCCC2 (stereo not given)
i	-0.22	CCC(C)NC(=O)CCn1c(-c2ccccc2)cc(C(C)=O)c1C (stereo not given)
i	0.17	Cn1cc(P(=O)(N2CCOCC2)N2CCOCC2)cc1P(=S)(N1CCOCC1)N1CCOCC1
i	0.89	COc1cc(OC)cc(-c2nn[nH]n2)c1
i	-0.8	O=C(CCS(=O)(=O)c1ccc(F)cc1)Nc1nnc(-c2ccco2)o1
i	-0.82	COc1ccc(-c2ccc(SCC(=O)NC3CCCCC3)nn2)cc1
i	-0.03	CC1CN(CC(O)COc2ccc(C#N)cc2)CCN1CC(O)COc1ccc(C#N)cc1 (stereo not given)
i	-0.04	O=C(NC1CCCCC1)c1cc(-c2ccccn2)nc2ccccc12
i	-0.04	CCOCCCNC(=O)C(NC(=O)c1ccccc1O)c1ccccc1 (stereo not given)
i	0.24	O=C(CSc1nnc(COc2ccccc2)o1)N1CCCC1

An excerpt from above in order of their number in KCNQ2 block baseline, high to low.
KCNQ2 block	KCNQ2 block baseline	Molecule
i	0.89	COc1cc(OC)cc(-c2nn[nH]n2)c1
i	0.17	Cn1cc(P(=O)(N2CCOCC2)N2CCOCC2)cc1P(=S)(N1CCOCC1)N1CCOCC1
i	-0.03	CC1CN(CC(O)COc2ccc(C#N)cc2)CCN1CC(O)COc1ccc(C#N)cc1 (stereo not given)

More entries:
KCNQ2 block	KCNQ2 block baseline	Molecule
i	0.04	O=C(CSc1nc2cc([N+](=O)[O-])ccc2n1-c1ccccc1)NCc1ccc2c(c1)OCO2
i	0.79	CCOC(=O)N/N=C(/C)c1ccc(N2C(=O)C3CCCCC3C2=O)cc1 (stereo not given)
i	0.71	CS(=O)(=O)N1CCc2cc(C(=O)N3CCOCC3)ccc21
i	1.1	CCOC(=O)c1nn(-c2ccc3c(c2)OCO3)cc1O
i	-0.72	C[N+](C)(C)CCCCCC[N+](C)(C)C
i	-0.01	Cc1nn(-c2ccccc2)nc1-c1nnc(-c2ccc(C(F)(F)F)cc2)o1
i	-0.32	COc1cc2c(C(=O)O)c(C)n(CC(C)C)c2c2ccccc12
i	-0.57	COc1ccc(OC)c(NC(=O)CSc2nnc(-c3ccncc3)s2)c1
i	-0.53	O=C1/C(=C/c2cccs2)Cc2ccccc21
i	-1.8	Cc1cnc(C(=O)NC(Cc2ccccc2)c2ccccc2)cn1 (stereo not given)
i	2.5	CS(=O)(=O)N1CCN(C(=O)c2cc(-c3cccs3)nc3ccccc23)CC1
i	0.74	O=C(CCC(=O)c1cccs1)OCc1nc2ccccc2s1
i	1.2	CCOC(=O)C1(Cc2ccc(OC)cc2)CCN(C(=O)CN2CCN(CC)CC2)CC1
i	0.22	O=C(c1cccs1)N(Cc1ccco1)c1nc(-c2ccc(F)cc2)cs1
i	-0.46	COc1ccc(CCNC(=S)NCCc2ccc(OC)c(OC)c2)cc1OC
i	-2.3	COc1ccc(NC(=S)N(CCN2CCOCC2)Cc2ccccc2F)cc1
i	-0.13	COc1ccccc1C(=O)n1nc(-c2cccnc2)nc1N
i	0.43	COc1cc2c(cc1OC)C1=C(C#N)CCC(=NC(=O)c3ccc(Cl)cc3)N1CC2
i	0.25	Cc1ccc(C(=O)NNC(=O)c2nn(-c3ccc(F)cc3)ccc2=O)cc1
i	-2	O=C(CSc1ccc2ccccc2c1)Nc1ccncc1

A second format for part of the listing above:
Each structure is followed by: KCNQ2 block	KCNQ2 block baseline
Cc1cccc(OCC(=O)O/N=C(\N)c2ccc(Br)cc2)c1
  i	-0.78
CC(C)=NN1C(=O)c2ccccc2NC1(C)C
  i	0.88
O=C(CSc1nc2cc(Cl)ccc2s1)N1CCN(C(=O)c2ccco2)CC1
  i	-2.4
Cc1cc2c(C)nc(Cc3ccccc3)nc2o1
  i	-0.02

(more compounds)
KCNQ2 block	KCNQ2 block baseline	Molecule
i	-0.01	Cc1ccc(/C=C2\SC(=S)N(CCCC(=O)Nc3cc(C)on3)C2=O)cc1
i	-1.3	COc1ccc(CN2CCNC(=O)C2CC(=O)NCCCn2cccn2)c(OC)c1 (stereo not given)
-5.7*	2.1*	COc1ccc(-c2noc(CSc3nc4ccccc4c(=O)n3-c3ccc(C)cc3)n2)cc1
i	0.72	COc1ccccc1OCCCC(=O)NC(C)c1ccccc1 (stereo not given)
i	-0.87	Cc1cccc(OCC(=O)N2CCN(c3nnc(-c4ccccc4)c4ccccc34)CC2)c1
i	-0.42	CNC(=O)COC(=O)c1cc(-c2ccco2)nc2ccccc12
i	0.76	COC(=O)C1=C(C)NC(=O)NC1C1CC=CCC1 (stereo not given)
i	0.01	CCc1ccc(N(C2C=CS(=O)(=O)C2)S(=O)(=O)c2ccccc2)cc1 (stereo not given)
i	-0.25	C=CCN(C(=O)c1ccccn1)C(C(=O)NCc1ccccc1)c1ccccc1F (stereo not given)
i	-0.02	CCOc1cc(C(=O)NC2CC(C)(C)NC(C)(C)C2)cc(OCC)c1OCC
i	-4.5	Fc1ccc(CNc2ncnc3c2cnn3-c2ccccc2)cc1
i	-0.34	CCC1CCCCN1CCCNC(=O)c1ccc(CS(=O)(=O)Cc2ccccc2F)o1 (stereo not given)
i	0.15	Cc1cc(=O)[nH]c2c1c(=O)[nH]n2C1CC(C)N(C)CC1C (stereo not given)
i	1.6	CC(=NCCCn1ccnc1)c1c(O)n(Cc2ccccc2)c(=O)[nH]c1=O
i	0.24	CCN1C(=S)N[C@@H](c2cccs2)C(C(=O)OC)=C1C
i	0.19	Cc1ccc(CNC(=O)CCSCc2ccccc2C)cc1
i	2.3	CCOC(=O)c1c(NC(C)=O)sc2c1C1CCN2CC1
i	0.98	CS(=O)(=O)c1[nH]nc(-c2ccccc2Cl)c1C#N
i	1.5	CCOc1c(C)cnc2c1c(=O)n(Cc1c(F)cccc1Cl)c(=O)n2C
i	-0.22	COc1ccc(NC(=S)N2CCN(Cc3ccccc3)CC2)cc1
i	0.37	O=C(CNC(=S)N(Cc1ccccc1)Cc1ccccc1F)NCc1ccc(Cl)cc1
i	0.43	CC(=O)SC1CC2=CC(=O)CCC2(C)C2CCC3(C)C(CCC34CCC(=O)O4)C12 (stereo not given)
i	1.5	CCOC(=O)C1(S(=O)(=O)c2ccccc2)CCN(Cc2ccccc2)CC1
i	-1.5	S=C(NCc1ccccc1)N1CCN(c2cccc(Cl)c2)CC1
i	-2.1	CC(=O)Nc1ccc(C(=O)NNC(=O)c2ccc(Cl)cc2Cl)cc1
i	-0.42	O=C(COC(=O)c1n[nH]c2ccccc12)Nc1ccc([N+](=O)[O-])cc1
i	1.5	COC(=O)C(Cc1ccc(O)cc1)NC(=O)c1ccccc1 (stereo not given)
i	-2.3	O=C(Oc1ccccc1)N1CCN(c2ccccc2F)CC1
i	-0.07	Cc1n[nH]c(C)c1CCC(=O)N/N=C/c1cccc([N+](=O)[O-])c1
i	-1.2	Oc1ccc(C2C(c3ccccc3)=NN=C(c3ccccc3F)N2O)c(O)c1 (stereo not given)
i	1.1	OC(COc1cccc2ccccc12)CN1CCCC1 (stereo not given)
-5.5*	1.4*	CCC1(C)Cc2ccccc2-c2nc(-c3ccccc3)oc(=O)c21 (stereo not given)
i	0.29	O=C(NCCCN1CCCC1=O)Nc1ccc(F)c(Cl)c1
i	-0.05	Cc1ccc(C(=O)NC(C(=O)NC2CCCC2)c2ccccc2)cc1 (stereo not given)
i	1.1	CC1Cc2cc(/C(O)=C3/C(=O)C(=O)N(CCCn4ccnc4)C3c3ccco3)ccc2O1 (stereo not given)
i	-1.3	C=CCNC(=S)NNC(=O)C(CCCC)CC(C)(C)O (stereo not given)
i	-2.2	O=C(Nc1cccc(-c2cccc(Cl)c2)c1)C1CCN(C2CCC2)CC1
i	0.87	COc1ccc(C(=O)O)cc1S(=O)(=O)NC(C)C
i	0.49	O=c1oc(-c2ccccc2)nc2sc3c(c12)CCCC3
i	-2.9	CCCCCCCCN1[C@@H](CC(=O)O)c2cc(C(F)(F)F)ccc2S1(=O)=O
i	2.1	COc1ccccc1-n1c(-c2ccccc2)c[nH]c1=S
i	1.2	Cc1ccc2cc3cc(C(=O)NCCCN4CCCC4=O)oc3nc2c1
-7.6*	0.01*	CCOC(=O)c1cnc2c(F)ccc(F)c2c1Sc1ccccc1

In the list so far, six have a cyano group.
KCNQ2 block	KCNQ2 block baseline	Molecule
i	1.9	CN(C)c1ccc(/C=C(\C#N)c2ccccn2)cc1
i	-0.04	N#Cc1cccc(C(c2nnnn2C2CCCC2)N2CCC(Cc3ccccc3)CC2)c1 (stereo not given)
i	2.7	N#CC1=C(N)Oc2cc(N)ccc2C1c1ccc(Cl)cc1 (stereo not given)
i	-0.03	CC1CN(CC(O)COc2ccc(C#N)cc2)CCN1CC(O)COc1ccc(C#N)cc1 (stereo not given)
i	0.43	COc1cc2c(cc1OC)C1=C(C#N)CCC(=NC(=O)c3ccc(Cl)cc3)N1CC2
i	0.98	CS(=O)(=O)c1[nH]nc(-c2ccccc2Cl)c1C#N
